# Screening data from PubChem.
# PrP UTR inh = inhibition of PrP 5' UTR reporter expression | cell-based PrP 5' UTR mRNA reporter, plate reader | inhibition, % (concentration not given with the values) | 340,000 tested, 0.35% active;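 active = every replicate at 50% or more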;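 also: 0 = median of the neutral control wells; tested in H4 reporter cells; numbers are from one replicate; inactives centre near -14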
# Sa ugtP lethal = compounds lethal to S. aureus RN4220 ugtP deletion mutant; 330,000 tested, 0.54% active; growth inhibition, % (no concentration beside the values); OD600 growth, 16 h; some inactives read as strong as hits; AID 1259309;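 active = z-score under -3 and OD600 up to 0.15 on both plates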;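 also: plate controls were untreated wells for no effect and antibiotic for full effect; wells of about 80 µL received 100 nL stock; the first replicate is given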
# BJeLR lethal = kills HRASV12-expressing BJeLR cells | 300,000 tested, 0.17% active | inhibition, % (concentration not given with the values) | BJeLR (HRASV12) viability, CellTiter-Glo ATP luminescence, 48 h; reference of the scale not given here;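 active = replicate mean above 50%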;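 also: 50 nL library stock added to about 25 µL; numbers are from one replicate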
# Autofluor counter = compound fluorescence in toxin protease inhibitor counterscreen | compound autofluorescence counterscreen, microsphere flow cytometry; stronger effect = higher value | fluorescence intensity (no concentration beside the values) | 360,000 tested, 3.1% active | AID 624483;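 active = at least 3 SD above the mean of all compounds, about 16000 in these data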;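 also: 100 nL of 1 mM stock went into each well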
# RN4220 kill = kills Staphylococcus aureus RN4220; S. aureus RN4220 growth, OD600, 16 h; inhibition, % (no concentration beside the values); 330,000 tested, 0.33% active; AID 1259311;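 active = z-score of -3 or lower and OD600 up to 0.18 on both plates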;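 also: plate controls were untreated cells for no effect and reference antibiotic for full effect; stock transfer was 100 nL into about 80 µL; one replicate is shown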
# Mtb hypoxia rep = inhibitors of hypoxia-regulated fluorescent reporter in Mycobacterium tuberculosis. 300,000 tested, 0.1% active. M. tuberculosis hypoxia-regulated fluorescent reporter, fluorescence. fluorescence inhibition, % (concentration not given with the values);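 active = 35 to 45% if threefold the growth effect, above 45% if 1.5-fold the growth effect; inactive = the rest, general growth blockers included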;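 also: wells of about 50 µL received 100 nL stock; 0% = vehicle wells and 100% = reference inhibitor wells; whole bacteria with a GFP reporter of the hypoxia response; strong numbers were not always called active; many hits fall short of the cut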
# Mtb hypoxia rep growth = further read-out of Mtb hypoxia rep, marked with its call; growth inhibition, %; measured here: M. tuberculosis growth (absorbance);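 0% = vehicle and 100% = reference antibiotic; read after six days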
# The depositor's hits bear a star; · = no result given.
# Preview:
nr	Compound	PrP UTR inh	Sa ugtP lethal	BJeLR lethal	Autofluor counter	RN4220 kill	Mtb hypoxia rep	Mtb hypoxia rep growth
1	O=C(Nc1cc(Cl)ccn1)C1(c2ccccc2)CC1(Cl)Cl (stereo not drawn)	3	-12	-5	·	-26	2	0
2	O=C(O)c1ccc(NC(=S)NC(NC(=O)c2ccco2)C(Cl)(Cl)Cl)cc1 (stereo not drawn)	-5	-12	0	25206*	6.1	8	10
3	O=C(NCCc1ccccc1)C1=COCCO1	-57	2	6	5727	-0.5	3	15
4	S=c1[nH]ccn1-c1ccc(Cl)cc1	-8	5	2	3958	5.5	6	1
5	Cc1ccc(SCC(=O)Nc2ccc(N3CCN(C)CC3)c(F)c2)cc1	-46	-1	14	10121	-1.2	7	6
6	O=C(NCc1cccnc1)c1ccc2c(c1)OCO2	-26	-4	0	22188*	1.0	6	9
7	NS(=O)(=O)c1ccc(N/N=C/c2ccncc2)cc1	-31	·	-9	3573	·	·	·
8	CC(Sc1nnnn1-c1ccccc1)C(=O)Nc1ccccc1-c1ccccc1 (stereo not drawn)	-29	2	-15	2075	2.0	3	-5
9	CCC(=NNC(=O)c1cccc(S(=O)(=O)N2CCOCC2)c1)c1ccccc1	-11	-1	·	3463	0.8	19	9
10	CCCCn1c(N)c(N(CC(C)C)C(=O)CC2CCCCC2)c(=O)[nH]c1=O	-20	1	4	·	3.5	6	0
11	O=[N+]([O-])c1ccccc1S(=O)(=O)N1CCN(CC2CC3C=CC2C3)CC1 (stereo not drawn)	-11	24	-6	4934	6.8	7	0
12	Clc1nc2ccccc2cc1-c1nnn(-c2ccccc2Br)n1	-26	-12	-3	4003	4.5	8	14
13	COc1cccc(-c2nc(CS(=O)(=O)CC(=O)Nc3ccccc3Br)c(C)o2)c1	-9	-4	-2	5055	-1.0	-10	-19
14	CN(CC(c1ccccc1)N(CC(Cc1ccccc1)N(CCc1ccccc1)N=O)N=O)N=O (stereo not drawn)	·	-9	·	·	14	1	4
15	CCN(CC)CCCCN1c2ccccc2Sc2ccccc21	-5	3	-3	3727	-4.3	6	7

# Main list, from the start:
nr	Compound	PrP UTR inh	Sa ugtP lethal	BJeLR lethal	Autofluor counter	RN4220 kill	Mtb hypoxia rep	Mtb hypoxia rep growth
1	O=C(Nc1cc(Cl)ccn1)C1(c2ccccc2)CC1(Cl)Cl (stereo not drawn)	3	-12	-5	·	-26	2	0
2	O=C(O)c1ccc(NC(=S)NC(NC(=O)c2ccco2)C(Cl)(Cl)Cl)cc1 (stereo not drawn)	-5	-12	0	25206*	6.1	8	10
3	O=C(NCCc1ccccc1)C1=COCCO1	-57	2	6	5727	-0.5	3	15
4	S=c1[nH]ccn1-c1ccc(Cl)cc1	-8	5	2	3958	5.5	6	1
5	Cc1ccc(SCC(=O)Nc2ccc(N3CCN(C)CC3)c(F)c2)cc1	-46	-1	14	10121	-1.2	7	6
6	O=C(NCc1cccnc1)c1ccc2c(c1)OCO2	-26	-4	0	22188*	1.0	6	9
7	NS(=O)(=O)c1ccc(N/N=C/c2ccncc2)cc1	-31	·	-9	3573	·	·	·
8	CC(Sc1nnnn1-c1ccccc1)C(=O)Nc1ccccc1-c1ccccc1 (stereo not drawn)	-29	2	-15	2075	2.0	3	-5
9	CCC(=NNC(=O)c1cccc(S(=O)(=O)N2CCOCC2)c1)c1ccccc1	-11	-1	·	3463	0.8	19	9
10	CCCCn1c(N)c(N(CC(C)C)C(=O)CC2CCCCC2)c(=O)[nH]c1=O	-20	1	4	·	3.5	6	0
11	O=[N+]([O-])c1ccccc1S(=O)(=O)N1CCN(CC2CC3C=CC2C3)CC1 (stereo not drawn)	-11	24	-6	4934	6.8	7	0
12	Clc1nc2ccccc2cc1-c1nnn(-c2ccccc2Br)n1	-26	-12	-3	4003	4.5	8	14
13	COc1cccc(-c2nc(CS(=O)(=O)CC(=O)Nc3ccccc3Br)c(C)o2)c1	-9	-4	-2	5055	-1.0	-10	-19
14	CN(CC(c1ccccc1)N(CC(Cc1ccccc1)N(CCc1ccccc1)N=O)N=O)N=O (stereo not drawn)	·	-9	·	·	14	1	4
15	CCN(CC)CCCCN1c2ccccc2Sc2ccccc21	-5	3	-3	3727	-4.3	6	7
16	Cc1nn(C)cc1C=NNC(=O)c1ccco1	·	8	·	·	2.6	11	-5
17	O=C(N/N=C/c1ccc(-c2cccc(C(F)(F)F)c2)o1)c1ccccc1O	-8	·	3	2799	·	·	·
18	N#CCCn1cc(/C=N/NC(=O)c2ccncc2)c(-c2ccc(F)cc2)n1	-7	·	2	2127	·	·	·
19	CC(C)(C)c1ccc(OCC(=O)N2CCN(c3ccccn3)CC2)cc1	6	12	·	3041	10	7	5
20	CC(C)n1cnc2c(N(C)c3cccc(Cl)c3)nc(N(CCO)CCO)nc21	4	4	-4	4096	5.6	16	6
21	COc1cc2c(cc1NC(=O)/C=C/c1ccccc1)oc1ccccc12	-41	51	4	8620	26	7	4
22	CCc1cc2c(NC(C(=O)O)C(C)C)ncnc2s1 (stereo not drawn)	-14	-6	9	3315	3.7	0	-2
23	Cc1nn(C)cc1C=NNC(=S)Nc1ccccc1	·	0	·	·	-0.4	-4	11
24	COc1ccc(OC)c(NC(=O)C(=O)NCCC2=CCCCC2)c1	-18	4	6	1923	7.0	-5	10
25	CCOC(=O)c1cnc2c(cnn2C)c1NCCCn1ccnc1	7	7	2	2984	2.7	13	2
26	COC(=O)CNC(c1ccccc1)c1cc(C)ccc1NC(=O)CNC(=O)OCc1ccccc1 (stereo not drawn)	-20	-4	-5	7999	3.3	9	8
27	O=c1[nH]c(=O)c2[nH]c(=S)n(-c3ccccc3)c2[nH]1	-16	3	·	4311	3.6	13	14
28	CNC(=O)c1[nH]cnc1C(=O)NCC(=O)OC(C)(C)C	-10	-3	7	2893	0.8	8	6
29	COC(=O)CSc1ccsc1C(=O)O	-22	9	3	2810	3.7	2	4
30	COC(=O)c1cccc(NC(=O)Nc2ccccc2OC)c1	-27	-1	2	2623	1.1	8	5
31	Cc1ccc(-c2nc3ccccc3c(=O)n2-c2cccnc2)cc1	-19	1	-11	1934	-2.0	0	1
32	CCN(CC)c1ccc(/C=N/N2CCN(Cc3ccc(C)cc3)CC2)c(O)c1	-16	·	-3	11712	·	·	·
33	COc1cc(-c2nc(-c3ccccc3)c(-c3cc([N+](=O)[O-])ccc3C)[nH]2)cc(OC)c1OC	-8	-10	-6	2533	-12	-11	8
34	CCOC(=O)c1sc2nc(SCC#N)n(CC3CCCO3)c(=O)c2c1C (stereo not drawn)	-25	3	-3	11008	6.0	8	8
35	CC(=O)NCCCOc1ccc([N+](=O)[O-])cc1Cl	-10	5	-4	4302	2.3	4	5
36	O=C(NCCN1CCOCC1)c1cc(-c2cccs2)on1	-56	-5	·	11717	-2.9	-5	-6
37	COc1ccc(/C=C/C(=O)OCC(=O)N2CCCCCC2)c(OC)c1	-9	72	·	6446	5.3	6	-6
38	Cc1cccc(C)c1NC(=S)N(CCN1CCCCCC1)Cc1ccco1	-10	1	-17	3958	2.6	1	6
39	O=S1(=O)CCOC[C@H](Cc2ccccc2)N1Cc1ccccc1	6	·	-4	4108	·	·	·
40	Cc1ccc(NC(=O)c2sccc2C)nc1	-69	2	24	5601	4.2	-2	1
41	O=C(Nc1cccc(-c2nnc(-c3ccco3)o2)c1)C(c1ccccc1)c1ccccc1	-5	13	21	2730	27	2	16
42	CC(C)N1CCN(CC#Cc2ccccc2)CC1CCO (stereo not drawn)	-1	17	-13	2626	0.6	0	11
43	CN(C)c1nc(=S)nc(NCc2ccccc2)[nH]1	-12	5	31	4177	-0.8	-1	1
44	Cn1nc(C(=O)NCCc2ccc(Cl)cc2)c2c1-c1ccccc1S(=O)(=O)C2	-10	11	6	5328	2.7	-2	-13
45	Cc1ccc(NC(=O)/C=N/OCC(=O)NCc2ccccc2Cl)cc1	-17	·	9	4515	·	·	·
46	Cc1nc(Nc2cccc(O)c2)c2c3c(sc2n1)CCC3	-16	9	-8	5481	3.5	-1	-6
47	COc1ccc(Br)cc1CNC(=O)C1CCN(S(=O)(=O)N2CCC(C)CC2)CC1	5	6	-5	2254	-1.6	5	2
48	CCCSc1nnc(CSc2ncccn2)n1C	-22	6	-1	4206	9.8	14	5
49	COc1ccc(N2CC(C(=O)NCCCN3CCOCC3)CC2=O)cc1 (stereo not drawn)	-30	2	-5	23842*	2.3	3	7
50	CCc1ccccc1NS(=O)(=O)c1ccc2[nH]cc(C(=O)NCC3CCCO3)c(=O)c2c1 (stereo not drawn)	-25	7	-4	4570	5.4	6	4

# The list continues:
nr	Compound	PrP UTR inh	Sa ugtP lethal	BJeLR lethal	Autofluor counter	RN4220 kill	Mtb hypoxia rep	Mtb hypoxia rep growth
51	CN(C)CCc1cc2c(c3c1ccc1ccccc13)OCO2	-25	-1	0	·	-1.8	9	-13
52	COc1ccccc1-n1ccnc(SCC(=O)NCc2ccccc2)c1=O	-15	-4	3	5785	-3.0	-3	7
53	NC(=O)c1ccc(CN2CCc3ccccc3C2)cc1	-27	5	-3	3456	3.7	1	7
54	OCCO	-14	2	·	4073	0.9	·	·
55	Cn1c2c(c(=O)n(C)c1=O)C(CC(=O)Nc1ccccc1)C(=O)N2 (stereo not drawn)	-20	-2	-3	4115	4.4	20	5
56	Cc1oc2c(C)c(O)ccc2c(=O)c1N1C(=O)c2ccccc2C1=O	-16	1	-18	2491	6.1	13	6
57	CCC(C)c1ccccc1N1CC(C(=O)N2CCN(S(=O)(=O)c3cccc([N+](=O)[O-])c3)CC2)CC1=O (stereo not drawn)	-4	1	·	4421	5.0	4	3
58	CCOC(=O)c1c(NC(=O)C2COc3ccccc3O2)sc2c1CCN(Cc1ccccc1)C2 (stereo not drawn)	-11	1	-2	2229	-5.7	-12	-1
59	Cc1cc(C)n2nc(C(=O)N3CCN(c4ccc([N+](=O)[O-])cc4)CC3)nc2n1	7	-5	-10	4141	6.4	-7	1
60	Cc1cc(=O)oc2cc(OCC(=O)NCCCN3CCCC3=O)ccc12	-7	8	6	5569	3.3	-1	0
61	Cc1onc(-c2ccccc2Cl)c1C(=O)NNC(=O)c1ccc(F)cc1	-15	11	-16	3496	4.0	-5	-2
62	O=C(CCN1CCCCC1)NNC(=O)C12CC3CC(CC(C3)C1)C2	-20	5	5	4232	9.8	5	8
63	CCC(C)NCCOCCOc1ccc(Cl)c(C)c1C (stereo not drawn)	-3	-5	-6	2058	-4.1	13	13
64	COc1ccc(CCC(=O)N/N=C\c2cccs2)cc1	-19	·	-5	4391	·	·	·
65	COc1cc2[nH]c(C(=O)Nc3ccc4c(c3)OCCO4)cc2c(OC)c1OC	-16	-5	4	5490	2.4	-3	3
66	COc1ccc(S(=O)(=O)NC(C)C)cc1-n1cnnn1	-16	0	0	4000	3.8	0	10
67	CC(C)N(CCNC(=O)c1nn(Cc2ccccc2)c(=O)c2ccccc12)C(C)C	-7	·	-11	5814	·	·	·
68	CC(C)=CCN1CCN(CCCn2cccn2)CC1CCO (stereo not drawn)	-26	12	9	2007	-0.2	-1	5
69	O=C(Cn1ccsc1=NC(=O)C(F)(F)F)c1ccccc1	-2	7	1	2673	-0.2	·	·
70	Cc1ccc(OCc2nc(C#N)c(NCc3ccco3)o2)cc1	-11	6	5	2338	1.5	·	·
71	CN(Cc1ccccc1)C(=O)CCC1CCN(C(=O)CC2=CCCCC2)CC1	-25	·	3	5807	·	·	·
72	COc1cccc(C2N(c3ccc(Cl)cc3)C(=O)C3CCCN32)c1 (stereo not drawn)	-22	7	-10	5084	-0.1	·	·
73	COC(=O)C1=C(N)OC2=C(C(=O)CCC2)C1c1cccs1 (stereo not drawn)	-1	3	7	6976	-0.9	-6	-10
74	O=C(NCc1ccc(N2CCCC2=O)cc1)c1cccc(Cl)c1	-11	6	-1	4294	11	-12	1
75	COc1ccc(OCCCC(=O)N2CCCc3ccccc32)cc1	-13	4	4	3839	9.3	11	3
76	COc1ccc(N2C(=O)CSC2c2cccs2)cc1 (stereo not drawn)	-29	3	0	9444	5.5	12	0
77	CCC(C)NC(=O)Cn1ccc2cc(S(=O)(=O)N3CCCCCC3)ccc21 (stereo not drawn)	-21	7	5	4925	-0.6	2	-7
78	Cc1nc(SCc2nc3c(O)cccc3[nH]2)c2oc3ccccc3c2n1	-13	8	·	4014	5.9	-4	7
